BJeLR viab HTS: BJeLR cell viability loss, primary screen, luminescence, CellTiterGlo ATP; 30,000 compounds, 0.64% hits; AID 2275, 2010; BJeLR fibroblasts viability, 48 h; HRASV12, hTERT and SV40 LT/ST transformed; viability loss activity score, % (test concentration not listed); in the data active means viability loss activity score above about 50%; about a fifth of its hits are not listed in these tables;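 further: higher score means fewer live cells and less ATP luminescence; stock transfer was 50 or 100 nL into about 30 µL; 0% = vehicle wells and 100% = a reference killing control; one replicate is shown; the record names a cut of 85%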
A1 inhib: inducers of caspase activity in MEF A1-2A-BIM cells, primary screen, A1 inhibitor project, cell-based, CaspaseGlo luminescence. caspase-Glo luminescence, 3 h; percent of clofoctol signal, DMSO as zero. caspase activation, % (test concentration not listed). 21,000 compounds, 0.51% hits;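 active means most replicate scores above 10, or exactly half above 10 with mean activity above 10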;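 further: effector caspase 3 and 7 activity cleaving a DEVD luciferin substrate; 50 nL library stock added to about 30 µL; numbers are from one replicate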
An asterisk follows results filed as active; nt = no result given. Only part of the results is shown (hit frequency here may not be typical).

SMILES | BJeLR viab HTS | A1 inhib
C[C@@H]1CN([C@H](C)CO)C(=O)c2cc(NC(=O)C3CC3)ccc2O[C@H]1CN(C)Cc1ccc(C(F)(F)F)cc1 | -2.5 | 0.3
COc1ccc(S(=O)(=O)N(C)C[C@@H]2Oc3c(NS(=O)(=O)c4cn(C)cn4)cccc3C(=O)N([C@@H](C)CO)C[C@H]2C)cc1 | -10.6 | nt
Cc1ccc(S(=O)(=O)Nc2cccc3c2O[C@H](CN(C)S(=O)(=O)c2c(C)noc2C)[C@@H](C)CN([C@H](C)CO)C3=O)cc1 | 0.6 | nt
COc1ccc(NC(=O)N(C)C[C@H]2Oc3c(NS(=O)(=O)c4cn(C)cn4)cccc3C(=O)N([C@@H](C)CO)C[C@@H]2C)cc1 | 4.6 | nt
C[C@H](CO)N1C[C@H](C)[C@H](CN(C)C(=O)Nc2ccccc2)Oc2c(NC(=O)C3CCOCC3)cccc2C1=O | -4.3 | nt
CN(C(=O)CSc1nc(-c2cccs2)cc(C(F)(F)F)n1)c1ccccc1 | 2.5 | -0.1
C[C@H]1CN([C@@H](C)CO)C(=O)c2cccc(NC(=O)Nc3ccc(C(F)(F)F)cc3)c2O[C@H]1CN(C)S(=O)(=O)c1ccc(F)cc1 | -4.8 | nt
Cc1cc(C(=O)Nc2cccc3c2O[C@@H](CN(C)C(=O)Nc2cccc4ccccc24)[C@H](C)CN([C@H](C)CO)C3=O)n(C)n1 | 3.8 | nt
Cc1ccc(S(=O)(=O)Nc2cccc3c2O[C@H](CN(C)C(=O)Nc2ccc(C(F)(F)F)cc2)[C@@H](C)CN([C@@H](C)CO)C3=O)cc1 | 3.6 | nt
C[C@H]1CN([C@@H](C)CO)C(=O)c2cccc(NS(=O)(=O)c3ccc(F)cc3)c2O[C@H]1CN(C)S(=O)(=O)c1cccs1 | 4.1 | nt
C[C@@H]1CN([C@@H](C)CO)C(=O)c2cccc(NC(=O)Nc3ccc(F)cc3)c2O[C@H]1CN(C)C(=O)Nc1ccc(C(F)(F)F)cc1 | -1.8 | nt
C[C@H](CO)N1C[C@H](C)[C@@H](CN(C)CC2CCCCC2)Oc2c(NC(=O)Nc3cccc4ccccc34)cccc2C1=O | 4.4 | nt
Cc1ccc(S(=O)(=O)Nc2ccc3c(c2)C(=O)N([C@H](C)CO)C[C@H](C)[C@H](CN(C)S(=O)(=O)c2cn(C)cn2)O3)cc1 | 6.6 | -0.2
C[C@@H]1CN([C@H](C)CO)C(=O)c2cccc(NC(=O)C3CCOCC3)c2O[C@@H]1CN(C)Cc1ccc(C(=O)O)cc1 | 2.1 | nt
C[C@@H]1CN([C@H](C)CO)C(=O)c2cc(NS(=O)(=O)c3ccccc3)ccc2O[C@H]1CN(C)C | 1.1 | 0.7
Cc1cc(OCC(=O)Nc2c(C)ccc3nsnc23)ccc1Cl | -1.8 | -0.8
O=C(C1CCCN(S(=O)(=O)c2cccc3cccnc23)C1)N1CCc2ccccc21 (centres undefined) | -1.5 | -0.5
Cc1ccc(C(O)c2nccc3ccccc23)cc1 (centres undefined) | 2.3 | 0.3
N#C/C(N=Cc1cccs1)=C(\C#N)NCc1ccccc1Sc1ccc(Cl)cc1 | 3.8 | -0.7
COc1ccc(-c2nc(-c3ccncc3)[nH]c(=O)n2)cc1 | -3.7 | 0.4
CC(C)CC1NC(=O)N(c2ccccc2)C1=O (centres undefined) | 3.6 | 0.3
C[C@@H]1CN([C@@H](C)CO)C(=O)c2cc(NC(=O)Nc3ccccc3)ccc2O[C@@H]1CN(C)C(=O)Nc1ccccc1 | -4.6 | 0.4
CCOC(=O)c1sc(C)c2c1NC(C)(c1ccccc1)NC2=O (centres undefined) | 0.4 | nt
Cc1noc(C)c1S(=O)(=O)Nc1cccc2c1O[C@H](CN(C)C(=O)Nc1ccccc1)[C@H](C)CN([C@@H](C)CO)C2=O | -0.5 | nt
O=S(=O)(Cc1ccc2nonc2c1)c1cccs1 | 4.5 | 0.4
Going on with the list:
SMILES | BJeLR viab HTS | A1 inhib
C[C@H]1CN([C@@H](C)CO)C(=O)c2cc(NC(=O)NC3CCCCC3)ccc2O[C@@H]1CN(C)S(=O)(=O)c1ccc(Cl)cc1 | -2.8 | 0.2
O=C1C=C(NCc2ccco2)CC(c2ccccc2)C1 (centres undefined) | -2.5 | 0.7
C[C@@H]1CN([C@H](C)CO)C(=O)c2cc(NC(=O)Nc3ccccc3)ccc2O[C@H]1CN(C)C(=O)Nc1ccc(C(F)(F)F)cc1 | 2.4 | 0.3
C[C@H](CO)N1C[C@H](C)[C@H](CN(C)CC2CCCCC2)Oc2c(NC(=O)c3ccc(-c4nccs4)cc3)cccc2C1=O | -2.8 | nt
CCOc1ccc(C(=O)Nc2c(C)ccc3nsnc23)cc1Br | -5.6 | -0.2
COc1cccc(CNC(=O)Cn2ncn3cccc3c2=O)c1 | 6.0 | -2.5
CNC[C@H]1Oc2c(NC(=O)c3cnccn3)cccc2C(=O)N([C@H](C)CO)C[C@H]1C | 2.4 | nt
C[C@@H]1CN([C@H](C)CO)C(=O)c2cccc(NC(=O)c3nc4ccccc4s3)c2O[C@H]1CN(C)Cc1ccc(C(=O)O)cc1 | -0.6 | nt
C[C@H]1CN([C@@H](C)CO)C(=O)c2cc(NC(=O)C3CC3)ccc2O[C@H]1CN(C)CC1CCCCC1 | -2.5 | 0.1
COC(=O)c1sc2ccccc2c1O | -2.6 | 0.2
C[C@@H]1CN([C@H](C)CO)C(=O)c2cc(NS(=O)(=O)c3ccc(Cl)cc3)ccc2O[C@@H]1CN(C)C(=O)Nc1ccc(C(F)(F)F)cc1 | 0.1 | 0.3
CC1CCCN(S(=O)(=O)c2ccccc2)C1 (centres undefined) | 3.3 | 0.2
CC(C)(C)C(=O)Nc1ccccc1Cc1ccccc1 | 0.5 | 0.4
COC(=O)c1cc(S(=O)(=O)NCC2CN(Cc3ccccc3)CN(Cc3ccccc3)C2)oc1C | 4.5 | nt
C[C@H]1CN([C@@H](C)CO)C(=O)c2cc(NS(=O)(=O)c3ccc(F)cc3)ccc2O[C@@H]1CN(C)S(=O)(=O)c1ccccc1 | 3.7 | 0.4
COc1ccc2cc3c(N)nn(C(=O)CCn4c(=S)oc5ccccc54)c3nc2c1 | 4.6 | nt
CC(=O)Nc1ccc(NS(C)(=O)=O)cc1 | 3.9 | 0.1
C[C@H](CO)N1C[C@H](C)[C@H](CN(C)C(=O)Nc2ccc(F)cc2)Oc2ccc(NC(=O)c3ccncc3)cc2C1=O | 7.6 | 2.4
C[C@H]1CN([C@@H](C)CO)C(=O)c2cccc(NC(=O)c3ccncc3)c2O[C@H]1CN(C)S(C)(=O)=O | 2.0 | nt
C[C@H](CO)N1C[C@H](C)[C@@H](CN(C)C(=O)Nc2cccc3ccccc23)Oc2c(NS(=O)(=O)c3ccc(F)cc3)cccc2C1=O | -5.6 | nt
O=C(CSc1nc(-c2ccc(F)cc2)[nH]c1-c1ccccc1)NC1CCCC1 | -3.0 | nt
O=C(Oc1cccc(Nc2ncnc3ccccc23)c1)c1cccs1 | 5.2 | nt
COc1ccc(NC(=O)N2CCN(C/C=C/c3ccccc3)CC2)cc1 | 2.8 | -0.5
CC(C)NC(=O)CSc1nc(-c2ccc(F)cc2)cc(C(F)(F)F)n1 | -6.0 | -0.2
C[C@H]1CN([C@@H](C)CO)C(=O)c2cc(N(C)C)ccc2O[C@H]1CN(C)C(=O)NC1CCCCC1 | 0.7 | 0.0
Other entries
SMILES | BJeLR viab HTS | A1 inhib
COc1ccc(C(=O)Nc2ccc3c(c2)C(=O)N(C)C3=O)cc1OC | 1.3 | -0.8
C[C@@H]1CN([C@@H](C)CO)C(=O)c2cc(NC(=O)NC3CCCCC3)ccc2O[C@H]1CN(C)Cc1ccc(Cl)c(Cl)c1 | 4.5 | -0.3
O=C(Cc1ccccc1)Nc1cccc(S(=O)(=O)c2cccc(NC(=O)Cc3ccccc3)c2)c1 | -2.9 | 1.6
O=C(c1cccnc1)N(C1CCCCC1)C1CCCCC1 | 4.3 | 0.0
C[C@H]1CN([C@@H](C)CO)C(=O)c2cccc(NS(=O)(=O)c3cccs3)c2O[C@@H]1CN(C)C(=O)NC1CCCCC1 | 6.2 | nt
COc1ccc(S(=O)(=O)Nc2cccc3c2O[C@H](CN(C)S(=O)(=O)c2cn(C)cn2)[C@H](C)CN([C@H](C)CO)C3=O)cc1 | -3.6 | nt
COC(=O)c1ccc(S(=O)(=O)N2CCCN(Cc3ccccc3)CC2)n1C | 0.2 | nt
C[C@@H]1CN([C@H](C)CO)C(=O)c2cc(NC(=O)Cc3cn(C)c4ccccc34)ccc2O[C@@H]1CN(C)Cc1ccc(C(F)(F)F)cc1 | -1.7 | 0.4
C[C@H](CO)N1C[C@H](C)[C@@H](CN(C)C(=O)Nc2ccc(F)cc2)Oc2c(NC(=O)Nc3cccc4ccccc34)cccc2C1=O | -2.7 | nt
COc1ccc(C2c3ccsc3CCN2C(=O)NC(C)(C)C)cc1 (centres undefined) | -0.7 | 0.6
CC(=O)n1c2c(c3ccccc31)OC(N)=C(C#N)C2c1ccc(C(C)C)cc1 (centres undefined) | -3.5 | 0.5
C[C@H](CO)N1C[C@H](C)[C@@H](CN(C)S(=O)(=O)c2cccs2)Oc2ccc(NC(=O)Nc3ccc(F)cc3)cc2C1=O | -0.5 | 0.5
O=C(Nc1nc2ccc(Cl)cc2s1)C1CN(C(c2ccccc2)c2ccccc2)C1 | 0.7 | 0.4
C[C@@H]1CN([C@H](C)CO)C(=O)c2cc(NC(=O)Cc3ccccc3)ccc2O[C@H]1CN(C)C | 1.7 | 0.6
COc1ccc(NC(=O)Nc2cccc3c2O[C@H](CN(C)Cc2ccc(-c4ccccc4)cc2)[C@@H](C)CN([C@@H](C)CO)C3=O)cc1 | -0.4 | nt
COc1ccc(S(=O)(=O)N(C)C[C@@H]2Oc3c(NC(=O)c4cc(C)nn4C)cccc3C(=O)N([C@@H](C)CO)C[C@H]2C)cc1 | -0.3 | nt
C[C@@H]1CN([C@H](C)CO)C(=O)c2cccc(NC(=O)C3CCCCC3)c2O[C@@H]1CN(C)C(=O)Nc1ccc(C(F)(F)F)cc1 | -0.2 | nt
CCc1ccc(OCCNC(=O)c2ccco2)cc1 | 0.2 | -0.6
O=C(CSc1nnnn1-c1ccccc1)NC(C(=O)O)(c1ccccc1)c1ccccc1 | -1.0 | 0.4
C[C@H](CO)N1C[C@H](C)[C@H](CN(C)S(=O)(=O)c2ccc(F)cc2)Oc2ccc(NC(=O)Nc3ccc(C(F)(F)F)cc3)cc2C1=O | -3.8 | 0.5
O=C(Cn1c(=O)oc2cc(S(=O)(=O)NC3CCCCC3)ccc21)N1CCCCCC1 | 7.0 | -0.2
O=c1[nH]c2ccc(Cl)cc2c2oc(-c3ccccc3)nc12 | -2.1 | -0.8
CC(C)NC(=O)N(C)C[C@H]1Oc2c(NS(=O)(=O)c3cn(C)cn3)cccc2C(=O)N([C@H](C)CO)C[C@H]1C | 1.1 | nt
CN1N=C(C(C)(C)C)CSC1=Nc1ccccc1 | 4.3 | nt
O=C(CCn1c(=S)[nH]c2c(sc3ccccc32)c1=O)NC1CCCCC1 | -1.8 | nt

Not a retest: an excerpt of the list.
SMILES | BJeLR viab HTS | A1 inhib
COc1ccc(S(=O)(=O)N(C)C[C@@H]2Oc3c(NC(=O)c4cc(C)nn4C)cccc3C(=O)N([C@@H](C)CO)C[C@H]2C)cc1 | -0.3 | nt
C[C@@H]1CN([C@H](C)CO)C(=O)c2cccc(NC(=O)C3CCCCC3)c2O[C@@H]1CN(C)C(=O)Nc1ccc(C(F)(F)F)cc1 | -0.2 | nt
CCc1ccc(OCCNC(=O)c2ccco2)cc1 | 0.2 | -0.6
O=C(CSc1nnnn1-c1ccccc1)NC(C(=O)O)(c1ccccc1)c1ccccc1 | -1.0 | 0.4
C[C@H](CO)N1C[C@H](C)[C@H](CN(C)S(=O)(=O)c2ccc(F)cc2)Oc2ccc(NC(=O)Nc3ccc(C(F)(F)F)cc3)cc2C1=O | -3.8 | 0.5
O=C(Cn1c(=O)oc2cc(S(=O)(=O)NC3CCCCC3)ccc21)N1CCCCCC1 | 7.0 | -0.2
O=c1[nH]c2ccc(Cl)cc2c2oc(-c3ccccc3)nc12 | -2.1 | -0.8
CC(C)NC(=O)N(C)C[C@H]1Oc2c(NS(=O)(=O)c3cn(C)cn3)cccc2C(=O)N([C@H](C)CO)C[C@H]1C | 1.1 | nt
CN1N=C(C(C)(C)C)CSC1=Nc1ccccc1 | 4.3 | nt
O=C(CCn1c(=S)[nH]c2c(sc3ccccc32)c1=O)NC1CCCCC1 | -1.8 | nt

(more compounds)
SMILES | BJeLR viab HTS | A1 inhib
C[C@@H]1CN([C@H](C)CO)C(=O)c2cccc(NS(=O)(=O)c3ccc(F)cc3)c2O[C@H]1CN(C)Cc1ccncc1 | -0.9 | nt
CNC[C@H]1Oc2c(NC(=O)C3CCCCC3)cccc2C(=O)N([C@@H](C)CO)C[C@@H]1C | 2.1 | nt
O=C(O)c1ccc2nc(CCc3nc4ccc(C(=O)O)cc4[nH]3)[nH]c2c1 | 3.8 | -0.9
O=C(c1ccccc1)N1CN(C(=O)c2ccccc2)CN(C(=O)c2ccccc2)C1 | 3.5 | -0.2
CN(C)c1nc(Oc2ccc(=O)n(C)n2)nc(N2CCCCC2)n1 | -7.1 | nt
CCN1C(=O)C2(c3ccccc31)c1c(oc3ccccc3c1=O)C(=O)N2CCO (centres undefined) | -3.2 | -0.2
C[C@H]1CN([C@@H](C)CO)C(=O)c2cccc(NC(=O)c3ccc(-c4nccs4)cc3)c2O[C@@H]1CN(C)S(=O)(=O)c1cccs1 | -1.1 | nt
C[C@@H]1CN([C@H](C)CO)C(=O)c2cc(NC(=O)Cc3cn(C)c4ccccc34)ccc2O[C@@H]1CN(C)C(=O)Nc1ccccc1 | -8.5 | -0.7

Screening results as filed in PubChem.
